Screening data (PubChem)
2A Renilla: FMDV 2A StopGo reporter, Renilla signal. HEK cells with a luciferase reporter of 2A StopGo recoding. Potency, µM (titrated, usually from 57.5 µM), without a hit: top-dose signal change, negative = less light. actives 0.32% (n = 120,000); active means well fitted falling curve with a large enough effect; inconclusive means small, poorly fitted or top-dose-only effect; inactive means no such curve, though single readings can be large or run the other way; note: nearly all actives have a fitted effect of over 55% in size; overnight with compound
2A firefly: lowers the firefly signal of an FMDV 2A StopGo reporter; HEK cells with a luciferase reporter of 2A StopGo recoding; Potency, µM (doses to about 57.5 µM), for the others: at the top dose signal change, negative = less light; actives 0.23% (n = 120,000); AID 1745856; active = well fitted falling curve with a large enough effect; inconclusive = small, poorly fitted or top-dose-only effect; inactive = no such curve, though single readings can be large or run the other way; note: nearly all actives have a fitted effect of over 60% in size; overnight with compound
Starred values were filed as active, the others as inactive; ? = inconclusive; & = joins results of further samples; [ ] = dose if it differs, or a comment. % is set by controls: 0 for no effect and ±100 for the full control effect; potency is the fitted concentration of half-maximal effect.

Compound	2A Renilla	2A firefly
Cc1ccc2c(c1)C1CC(c3ccccc3Cl)=NN1C1(CCN(C)CC1)O2 (stereo not given)	0%	44%[activator]
Cc1cccc(Oc2c(C(F)(F)F)oc3cc(OCC(=O)OC(C)C)ccc3c2=O)c1	-2%	-5%
CC(=O)c1nnn(-c2nc(N3CCCC3)nc(N3CCCC3)n2)c1C	2%	-7%
Cc1ccc(NC(=O)C2=C(c3ccccc3)NC(=S)NC2c2ccc(C(C)(C)C)cc2)cc1 (stereo not given)	16%	0%
Cc1nc2cc(NS(=O)(=O)c3c(C)c(C)cc(C)c3C)ccc2o1	169%[activator]	-15%
Cc1ccc(SCCC(=O)N2CCN(S(=O)(=O)c3ccc(Cl)s3)CC2)cc1	-25%	?
CCn1nc(C(=O)OCC(=O)Nc2ccc(Cl)c(S(=O)(=O)N(C)C)c2)c2ccccc2c1=O	-8%	-7%
CC(C)c1ccc(NC(=O)c2cc(S(=O)(=O)N3CCCCC3)cn2C)cc1	-2%	7%
Cc1onc(-c2ccccc2Cl)c1C(=O)NCc1ccccn1	-1%	13%
Cn1c(=O)c2sccc2n2c(CCCC(=O)Nc3ccc(Cl)cc3)nnc12	-9%	-15%
Cc1ccc(-c2cc(C(=O)Nc3c(C)n(C)n(-c4ccccc4)c3=O)no2)cc1C	6%	18%
Cc1cccc(NC(=O)c2cnc3ccccc3n2)n1	-7%	144%[activator]
CCOc1ccc(-c2cccc(NS(=O)(=O)c3ccc(C)s3)c2)nn1	215%[activator]	18%
COc1ccc(CC(=O)NCCc2csc(-c3ccc(C(F)(F)F)cc3)n2)cc1	-11%	-17%
CCOc1ccc(-c2cc3c(=O)n(CC(=O)NCc4ccccc4)ccn3n2)cc1	1%	151%[activator]
COc1cccc(CNC(=O)c2cc3n(n2)CCCN(Cc2ccc(C)cc2)C3=O)c1OC	?	?
COc1ccc(-n2c(COc3ccc(Cl)cc3)nnc2SCC(=O)C(C)(C)C)cc1	?	?
Fc1ccc(Cc2cn3cc(-c4ccc(Cl)cc4)nc3s2)cc1	28%	435%[activator]
COc1ccc(Nc2nc(C(=O)OCC(=O)c3cccc(OC)c3)cs2)cc1	7%	71%[activator]
COc1ccccc1C1=NS(=O)(=O)N(C)C(C(=O)N2CCCCC2C)=C1 (stereo not given)	59%[activator]	9%
CCOc1ccc(NC(=O)CSc2ccc(-c3sc(-c4ccccc4)nc3C)nn2)cc1	9%	-14%
CC(C)c1ccc(CCNC(=O)Cn2ncc3ccccc3c2=O)cc1	-6%	-4%
Cc1nc2ccccc2c(=O)n1-c1ccc(NC(=O)c2ccccc2[N+](=O)[O-])cc1	?	?
CCNC(=O)NC(=O)CN(C)Cc1ccc(C2CC2C)o1 (stereo not given)	0%	64%[activator]
Cc1cccc(C(C)C)c1NC(=O)C1CCCN1S(=O)(=O)c1cccc2nsnc12 (stereo not given)	-19%	-20%
Cc1cccc(Cn2c(CN3CCC(C(=O)NCc4cccnc4)CC3)cc3ccccc32)c1	0%	-25%
COc1ccccc1NC(=O)c1ccc2oc(=O)c(S(=O)(=O)c3ccccc3)cc2c1	-10%	-21%
CCC(C)(C)C(=O)O[C@H]1C[C@@H](C)C=C2C=C[C@H](C)[C@H](CC[C@@H]3C[C@@H](O)CC(=O)O3)[C@H]21	-6%&-15%	-9%
COCCNc1nc(-c2ccsc2)nc2ccccc12	-12%	-4%
Cc1ccc(C(=O)c2cn(Cc3cc(C)ccc3C)c3nc(C)ccc3c2=O)cc1	-6%	-21%
Cc1c(CNC2CCCCC2)c(C(=O)O)c(C)n1Cc1ccccc1F	-6%	-19%
O=C1CC(C(=O)Nc2ccc(Cl)cc2)c2ccc(F)cc2N1 (stereo not given)	-1%	12%
CCc1ccc(CNCC(O)c2ccccc2)cc1 (stereo not given)	2%	91%[activator]
Cc1ccc(-n2nc(CO)c(C(=O)NC(C)c3ccccc3)n2)cc1C (stereo not given)	-14%	-10%
NC(=O)[C@@H]1CCCN1C(C(=O)O)c1cn(CCC(=O)O)c2cc(Br)ccc12 (stereo not given in full)	-6%	2%
O=S1(=O)c2cccc3cccc(c23)N1CCCN1CCN(c2ccc(F)cc2)CC1	-6%	-17%[11.5 µM]
CC[N+](CC)(CC(=O)Nc1c(C)cccc1C)Cc1ccccc1	-3%	-11%
CCOc1ccccc1N(CC)C(=O)c1noc2c1COc1ccc(C)cc1-2	35%[activator]	26%
Cc1cc(C)c2oc(C(=O)N3CCN(c4cccc(Cl)c4)CC3)cc(=O)c2c1	92%[activator]	126%[activator]
CCCCCOc1nc2ccccc2nc1NS(=O)(=O)c1ccccc1	0%	12%

Ordered by length of the SMILES (high to low): 3 of the compounds above
Compound	2A Renilla	2A firefly
COc1ccccc1C1=NS(=O)(=O)N(C)C(C(=O)N2CCCCC2C)=C1 (stereo not given)	59%[activator]	9%
CCNC(=O)NC(=O)CN(C)Cc1ccc(C2CC2C)o1 (stereo not given)	0%	64%[activator]
CCc1ccc(CNCC(O)c2ccccc2)cc1 (stereo not given)	2%	91%[activator]

Taken from the entries so far (six entries):
Compound	2A Renilla	2A firefly
NC(=O)[C@@H]1CCCN1C(C(=O)O)c1cn(CCC(=O)O)c2cc(Br)ccc12 (stereo not given in full)	-6%	2%
O=S1(=O)c2cccc3cccc(c23)N1CCCN1CCN(c2ccc(F)cc2)CC1	-6%	-17%[11.5 µM]
CC[N+](CC)(CC(=O)Nc1c(C)cccc1C)Cc1ccccc1	-3%	-11%
CCOc1ccccc1N(CC)C(=O)c1noc2c1COc1ccc(C)cc1-2	35%[activator]	26%
Cc1cc(C)c2oc(C(=O)N3CCN(c4cccc(Cl)c4)CC3)cc(=O)c2c1	92%[activator]	126%[activator]
CCCCCOc1nc2ccccc2nc1NS(=O)(=O)c1ccccc1	0%	12%

(cont.)
Compound	2A Renilla	2A firefly
CCCCn1c(CCNC(=O)c2cccs2)nc2ccccc21	11%	5%
O=C(NCc1ccc(CN2CCCC2)cc1)c1cc(=O)[nH]c2ccccc12	-3%	-9%
CCCN(CCC)CCCNC(=O)c1nn(C)c2c1CS(=O)(=O)c1ccccc1-2	-8%	-11%
C/C(Cc1ccccc1)=N\NC(N)=S	5%	16%
Cc1cc(C)c(NC(=O)c2ccc3nc(C(C)C)oc3c2)c(C)c1	-12%	-3%
CC(C)C1NC(=O)N(Cc2cc(F)cc3cccnc23)C1=O (stereo not given)	4%	0%
COc1ccc(NC(=O)CN(C)S(=O)(=O)c2ccc3c(c2)c(=O)n(C)c(=O)n3C)cc1	-13%	-10%
CCn1c(CNC(=O)C23CC4CC(CC(C4)C2)C3)nnc1SCC(=O)Nc1ccccc1	13%	2%
Cc1cc2ccccc2n1CC(=O)NC1CCC(C)CC1 (stereo not given)	1%	81%[activator]
Cc1ccc2c(=O)cc(C(=O)N3CCC(Cc4ccccc4)CC3)oc2c1	18%	3%
Cc1ccc(Nc2nc(-c3cc4cc(Br)ccc4oc3=O)cs2)cc1	-3%	7%
OB(O)c1cccc2c1sc1ccccc12	35%	128%[activator]
Cc1nn(CCCC(=O)NCc2ccc(OC(C)C)cc2)c(=O)c2c1sc1ccccc12	9%	-21%
C=C(C)COc1ccc2c(=O)c(-c3ccccc3OC)coc2c1	17%	206%[activator]
COC(=O)c1ccc(OC)cc1OCc1ccc(C#N)cc1	-4%[1.06 µM]	0%
Cc1ccc2c(CCNC(=O)c3cnccn3)c[nH]c2c1	-4%	66%[activator]
Cc1coc2cc3oc(=O)c(CC(=O)N4CCCCC4)c(C)c3cc12	6%	-11%
CCOc1c(Br)cc(C(=O)N2CCN(c3ncccn3)CC2)cc1OC	41%[activator]	6%
Cc1c(C(c2ccc(O)cc2)c2c(O)c3ccccc3oc2=O)c(=O)n(-c2ccccc2)n1C (stereo not given)	44%[activator]	-9%
CCOCCCn1c(=N)c(C(=O)NCc2cccnc2)cc2c(=O)n3cc(C)ccc3nc21	-7%	-15%
O=C(NCc1ccc(Cl)cc1)C1CCN(S(=O)(=O)c2ccc(F)cc2)CC1	13%	-16%
Cn1nc(-c2ccccc2F)c2cc(C(=O)NCCc3ccc(Cl)cc3)sc21	-17%	-13%
O=C(Cn1ccn2nc(-c3ccc4c(c3)OCO4)cc2c1=O)NCc1ccco1	5%	89%[activator]
O=C(CSc1nc2c([nH]c3ccccc32)c(=O)n1-c1ccc(F)cc1)NCC1CCCO1 (stereo not given)	-16%	?
O=C(Cn1cc(C(F)(F)F)cc(Cl)c1=O)Nc1cc(Cl)ccc1F	-28%	-6%
CN(Cc1ccc2c(c1)OCO2)C(=O)c1cccc(OCc2ccccc2)c1	32%[activator]	-11%
COc1ccc(Br)c(C(=O)Nc2cc3c(cc2N2CCCCC2)n(C)c(=O)c(=O)n3C)c1	28%	7%
Cc1ccc(-c2cc(C(=O)NCc3cnn(C)c3C)c3ccccc3n2)cc1C	24%	107%[activator]
O=C(CSc1nnc(-c2ccccc2)c(-c2ccccc2)n1)NC(=O)NCc1ccccc1	10%	17%
O=C(CN1CCCCC1)Nc1nc(-c2ccccc2)c(-c2ccccc2)s1	2%	-5%
COc1cc(NC(=O)Cn2nc3ccc(SC4CCCCC4)nn3c2=O)cc(OC)c1OC	-4%	0%
CCCC(CCC)C(=O)Nc1cccc(C(=O)NCC(C)C)c1	10%	7%
N#CCCn1cc(C(=O)CN2C(=O)NC3(CCCC3)C2=O)c2ccccc21	1%	-12%
COc1ccc(C(C)=O)cc1CC(=O)OCc1ccc(C#N)cc1	7%	3%
OCCNc1nc(Nc2ccc(Br)cc2)nc2nccnc12	6%	0%
C=CCNC(=O)CNC(c1ccccc1)c1ccccn1 (stereo not given)	8%	4%
CCN(CCCNC(=O)c1cc2cc3cc(OC)ccc3nc2s1)c1ccccc1	16%	225%[activator]
COc1cc(NC(=O)c2cc(-c3cccc(OC)c3)n[nH]2)cc(OC)c1	-8%	37%[activator]
CCc1nn(CC(=O)NCC(C)c2ccccc2)c(=O)c2cc3occc3n12 (stereo not given)	?	?
O=C(CN1C(=O)CCc2cc(S(=O)(=O)N3CCCCC3)ccc21)NCc1ccc(Cl)cc1	67%[activator]	22%
CCSc1nnc2c(n1)OC(c1ccc(OCC(=O)O)cc1)Nc1ccccc1-2 (stereo not given)	-14%	0%
CCOC(=O)c1ccccc1NC(=O)Cn1c(=O)c2c(OCC)c(CC)cnc2n(C)c1=O	-4%	3%
COc1ccc(Cl)cc1NC(=O)c1ncn(-c2ccccc2)n1	33%	55%[activator]
O=C(OCc1nc2ccccc2o1)c1cccc(S(=O)(=O)N2CCCCCC2)c1	0%	25%
CCN1CCN(c2ncc3c(n2)CCN(Cc2ccc(Br)s2)C3)CC1	18%	1%
Cn1ncc2c(NCc3cccc(Cl)c3)ncnc21	-24%	18%
CCCCCn1nc(C(=O)OCc2nc(N)nc(Nc3ccccc3)n2)c2ccccc2c1=O	23%	26%
Cc1[nH]c(SCC(=O)NCCc2ccc3c(c2)OCCO3)nc1Cc1ccccc1	16%	-6%
C/C(CCc1oc2ccc(Br)cc2c1-c1ccc(C)o1)=N\O	0%	4%
CC1CCC(c2nnc(-c3ccccc3Cl)o2)CC1 (stereo not given)	34%[activator]	203%[activator]
Cc1ccc(NC(=O)Nc2nnc(N(C)Cc3ccccc3)s2)cc1	7%	-1%
CCOCCCn1c(SCC(=O)Nc2ccc(OC)cc2OC)nc2ccccc2c1=O	84%[activator]	1%
CC(C)(C)CC(=O)N1CCCC(CN2CCN(c3ccccn3)CC2)C1 (stereo not given)	-11%	0%
CC(C)NC(=O)CSc1nc(-c2ccccc2)[nH]c1S(=O)(=O)c1ccccc1	108%[activator]	-4%
CCCCN(Cc1cc2ccccc2[nH]c1=O)S(C)(=O)=O	-4%	-8%
Cc1cc(C)c(S(=O)(=O)NCCc2sc3nc(-c4ccc(F)cc4)nn3c2C)c(C)c1	71%[activator]	-18%
COc1cc(OC)c(C2SCCN2S(=O)(=O)c2ccc3ccccc3c2)cc1OC (stereo not given)	?	?
COc1ccc(NC(=O)CCSc2nnc3scc(-c4ccc(Cl)cc4)n23)cc1	11%	16%
COc1ccc(CNS(=O)(=O)c2cc3c4c(c2)CCN4C(=O)CC3)cc1	43%[activator]	0%
Cn1nc(C(=O)NCc2ccc(S(N)(=O)=O)cc2)c2ccccc2c1=O	15%	20%

Next records:
Compound	2A Renilla	2A firefly
Cc1cc(C)cc(NC(=O)C2=Cc3sc4c(c3CS2)CCCC4)c1	12%	119%[activator]
O=C(O)c1cc(-c2cccs2)nc2ccc(Cl)cc12	33%[activator]	28%
CN(C)c1ccc(-c2noc(C3CC(=O)N(c4ccc5c(c4)OCCO5)C3)n2)cc1 (stereo not given)	-5%	-2%
O=C(CC1C(=O)NCCN1C(=O)CN1CCN(CCO)CC1)Nc1ccc(F)cc1 (stereo not given)	0%	8%
Cc1ccc(C)c(S(=O)(=O)c2nnn3c2nc(NCc2ccc(F)cc2)c2sccc23)c1	8%	15%
COc1ccc2c(C)c(CC(=O)N3CCN(CCc4ccccn4)CC3)c(=O)oc2c1	1%	2%

Single values from the entries so far.
COc1ccc2c(C)c(CC(=O)N3CCN(CCc4ccccn4)CC3)c(=O)oc2c1 | 2A Renilla: 1%
O=C(O)c1cc(-c2cccs2)nc2ccc(Cl)cc12 | 2A firefly: 28%
